MLL AF4-AF9 inh: blocks AF4 peptide binding to human AF9. 0.47% of 350,000 active. P42568. inhibition, % at 10 µM. AID 651704. AlphaScreen, biotin-AF4 peptide binding to FLAG-AF9;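 active means every replicate reaching a set inhibition limit, whatever the replicate mean, cut at about 25% in these data; inconclusive means mean inhibition reaches that limit but some replicates miss it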;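 further: 0% = plate neutral control median and 100% = total signal loss; the record names both 10 and 1 µM as test concentration; the first replicate is given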
FGF22 binding: FGF22 (human) thermal shift binding. 1.5% of 340,000 active. calls only at 9.99 µM. Q9HCT0. recombinant FGF22 thermal shift, SYPRO orange fluorescence; percent of sucrose octasulfate shift, DMSO zero;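 active means melting point raised past a set limit in the mean and every replicate; inconclusive means no clear call; three in four hits are not shown here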
Target sequence (Q9HCT0 whole entry, looked up): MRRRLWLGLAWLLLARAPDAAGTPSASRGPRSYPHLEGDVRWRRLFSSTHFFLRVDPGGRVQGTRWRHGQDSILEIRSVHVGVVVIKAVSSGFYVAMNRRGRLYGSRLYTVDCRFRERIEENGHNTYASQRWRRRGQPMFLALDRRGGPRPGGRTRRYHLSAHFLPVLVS
HNF4A DNA FP: change in binding of human HNF4 alpha to DNA | P41235 | HNF4a-FITC DNA binding, fluorescence polarization, 1 h | activity change, % at 10 µM | 0.3% of 360,000 active | AID 1224865; in the data active means activity change above about 30%, passing the limit was not always enough;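 further: controls were the assay level and a saturating level of protein; the project sought stronger binding though the title names inhibitors; some compounds called inactive have numbers as strong as hits; positive values seem to mean higher polarization but the record does not say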
Target sequence (P41235 whole entry, looked up): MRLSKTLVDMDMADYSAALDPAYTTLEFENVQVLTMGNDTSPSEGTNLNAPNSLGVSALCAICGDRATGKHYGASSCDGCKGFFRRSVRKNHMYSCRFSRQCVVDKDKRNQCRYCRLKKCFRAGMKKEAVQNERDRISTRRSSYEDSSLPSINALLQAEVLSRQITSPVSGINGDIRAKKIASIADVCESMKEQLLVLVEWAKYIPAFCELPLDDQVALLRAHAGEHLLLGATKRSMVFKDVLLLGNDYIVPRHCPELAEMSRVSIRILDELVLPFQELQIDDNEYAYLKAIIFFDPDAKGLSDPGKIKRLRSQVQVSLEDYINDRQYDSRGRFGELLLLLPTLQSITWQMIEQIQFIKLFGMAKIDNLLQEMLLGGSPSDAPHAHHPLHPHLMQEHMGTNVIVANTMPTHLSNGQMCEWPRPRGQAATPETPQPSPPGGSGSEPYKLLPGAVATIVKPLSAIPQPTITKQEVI
UCH37 DUB inh: inhibitors of human deubiquitinating enzyme UCH37; Q9Y5K5; purified proteasome/UCH37, Ub-AMC cleavage fluorescence; inhibition, % (concentration not given with the values); 0.33% of 330,000 active;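 active means mean of two replicates above 20%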;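 further: 0% = compound-free wells with enzyme and 100% = wells lacking proteasome; stock transfer was 100 nL into about 20 µL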
Target sequence (Q9Y5K5 whole entry, looked up): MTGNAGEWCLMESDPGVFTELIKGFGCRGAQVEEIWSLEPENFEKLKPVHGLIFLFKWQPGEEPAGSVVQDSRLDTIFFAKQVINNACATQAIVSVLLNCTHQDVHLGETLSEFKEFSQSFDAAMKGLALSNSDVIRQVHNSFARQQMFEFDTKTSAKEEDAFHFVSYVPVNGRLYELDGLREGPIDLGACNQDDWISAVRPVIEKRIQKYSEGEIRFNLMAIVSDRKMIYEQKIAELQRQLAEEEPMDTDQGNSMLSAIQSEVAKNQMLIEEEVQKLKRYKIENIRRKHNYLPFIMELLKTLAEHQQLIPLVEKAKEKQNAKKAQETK
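Material: human UCH37 enzyme supplied as purified proteasome complex / Amount: 0.15 nM proteasome as dispensed / Buffer or medium: pH 7.4 Tris-HCl (50 mM) with ovalbumin, ATP-MgCl2, DTT / Times: preincubation 30 min, reaction 25 min, room temperature / Technique: AMC fluorescence from Ub-AMC cleavage, excitation 355 nm, emission 460 nm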
RanGTP-Impb inh: disruptors of Ran-importin-beta complex formation – biochemical, FRET, CFP-Ran, YFP-importin-beta, homogeneous, primary screen; cell-free CFP-Ran/YFP-importin-beta FRET ratio; inhibition, % (concentration not given with the values); 1.1% of 300,000 active;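 active means most replicates above 15%; inconclusive means exactly half above 15%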;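 further: 0% = DMSO wells and 100% = Ran loaded with GDP instead of GTP; wells of about 40 µL received 100 nL stock; the first replicate is given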
Vif A3G: HIV-1 Vif–A3G interaction blockers – biochemical, TR-FRET, GST-Vif 1-94, biotin-A3G peptide, dose response retest, primary screen (AID 1117319). TR-FRET GST-Vif / biotin-A3G peptide binding; higher % means a stronger effect; test concentration not given here; strong numbers were not always called active. inhibition, %; hits with a dose series show IC50 in µM. 0.57% of 260,000 active;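 active means above the screen mean plus three standard deviations and confirmed in dose response; inconclusive means results disagree or hit not tested in dose response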;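 further: Vif residues 1-94 fused to GST binding biotinylated APOBEC3G peptide 110-148; 0% = full assay without inhibitor and 100% = GST in place of GST-Vif; retest series ran down from 100 µM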
Ecoli growth: inhibitors of Escherichia coli growth | OD600, 23 h; hits give low values | OD600 absorbance (no concentration beside the values) | 0.21% of 330,000 active | AID 1053175;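 active means OD600 absorbance below the run mean of sample wells minus 3.6 SD, in any replicate, cut at about 0.56 in these data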;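 further: stock transfer was 300 nL into about 60 µL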
* marks the source's active call; other numbers are inactive results; i = inactive; ? = inconclusive; · = no result given; & = joins results of further samples.

SMILES | MLL AF4-AF9 inh | FGF22 binding | HNF4A DNA FP | UCH37 DUB inh | RanGTP-Impb inh | Vif A3G | Ecoli growth
CCOC(=O)C1=C(N)Oc2cc(C)oc(=O)c2C12C(=O)N1c3c(cccc32)C(C)CC1(C)C (stereo unspecified) | 2.5 | i | -0.8 | 4.3 | 4.6 | -4% | 0.73
Cc1cc(/C=C2\C(=O)NC(=S)N(C)C2=O)c(C)n1C1CCCCC1 | · | · | 2.5 | -0.6 | ? | 27% | ·
CCn1c(O)c(C=Nc2ccc(S(N)(=O)=O)cc2)c(=O)[nH]c1=S | · | · | 5.0 | 4.8 | 12 | -4% | 0.69
CC(C)CCNC(=O)c1c(N)n(CC2CCCO2)c2nc3ccccc3nc12 (stereo unspecified) | · | · | 1.6 | -350 | 93* | 4% | 0.66
O=C1CC(c2ccccc2)CN1 (stereo unspecified) | -0.6 | i | 2.1 | 0.7 | 6.1 | -7% | 0.65
O=C(O)C12C3CCCC1C32c1ccccc1 (stereo unspecified) | · | · | 0.7 | 1.2 | 1.3 | 5% | 0.74
CCC(C)C1NC(=O)C2CCCN2C(=O)C(CC(C)C)OC(=O)CCNC(=O)C(C)N(C)C(=O)C(C(C)C)N(C)C1=O (stereo unspecified) | -3.7 | i | 0.4 | · | · | -6% | ·
CC(C)(C)c1ccc(O)c(N=Cc2c(O)ccc3ccccc23)c1 | -1.0 | i | 76 | · | 2.4 | 28% | ·
CC(NC(=O)Cc1cccc2ccccc12)C(=O)N1CCC(=O)CC1 (stereo unspecified) | 0.5 | i | 1.9 | 0.6 | 2.6 | -7% | 0.64
Cc1ccc(/C=C2\C(=O)NC(=S)N(c3ccccc3F)C2=O)s1 | · | · | 3.6 | 1.3 | · | · | 0.7
CC1CC(C)(O)CC(C(O)CC2CC(=O)NC(=O)C2)C1=O (stereo unspecified) | 2.3 | i | -1.1 | · | · | 0% | ·
Fc1ccc(CNCCc2ccc3c(c2)OCO3)cc1 | -1.1 | i | 4.6 | -0.6 | -0.1 | · | 0.7
CC(=NCCCn1ccnc1)c1c(O)n(C)c(=O)n(C)c1=O | · | · | -1.1 | 1.2 | ? | 1% | 0.73
N#Cc1ccc(C(=O)N2Cc3cnnn3-c3ccccc3C2C#N)cc1 (stereo unspecified) | 5.6 | i | 2.0 | · | · | -5% | ·
CCC(=O)Nc1ccc(N2CCN(CC)CC2)c(Cl)c1 | · | · | -0.6 | -1.6 | -0.5 | 2% | 0.76
CC1CCN(CC(=O)c2cccc(C(F)(F)F)c2)CC1 | 1.5 | i | 3.8 | 0.3 | 3.0 | 4% | 0.66
CC(C)c1ccc(O)c(CN2CCN(c3ccccc3)CC2)c1 | · | · | 1.8 | 2.2 | 2.4 | 0% | 0.65
CC(C)(C#CC(=O)O)OOC(c1ccccc1)(c1ccccc1)c1ccccc1 | 1.2 | i | -2.6 | -3.0 | 0.4 | 1% | 0.65
CCN(CC)c1ccc(CC2C(=O)N(C)C(=O)N(C)C2=O)cc1 | · | · | 7.2 | 8.5 | 0.6 | · | 0.71
Cc1nc2ccccc2c(=O)n1-c1ccc(-c2ccccc2)cc1 | -11 | i | 5.7 | 1.9 | 0.5 | -42% | 0.67
COc1cccc(NP2(=O)OCC(C)([N+](=O)[O-])CO2)c1 (stereo unspecified) | -0.1 | i | 0.0 | · | · | -4% | ·
COc1cc(/C=C2\C(=O)NC(=O)N(c3ccccc3)C2=O)cc(OC)c1O | · | · | -1.2 | 1.6 | 0.7 | ? | 0.59
CC(Cc1ccccc1)NC(=O)NC(C)Cc1ccccc1 (stereo unspecified) | · | · | -2.9 | 0.1 | 0.8 | 3% | 0.71
O=C(Cn1ncn2c(cc3cc(F)ccc32)c1=O)N1CCC2(CC1)OCCO2 | -0.8 | i | 1.1 | -42 | -0.2 | -7% | 0.71
O=C(N/N=C/c1c(O)n(C2CCCCC2)c(=S)[nH]c1=O)c1ccccc1 | 21 | i | 2.8 | -70 | 3.5 | · | 0.72
COc1cc(C2SCC(=O)Nc3c2c(C)nn3-c2ccccc2)cc(OC)c1OC (stereo unspecified) | · | · | 4.7 | 3.3 | -3.1 | 6% | 0.69
NCCc1ccc(S(=O)(=O)F)cc1 | -2.3 | i | -1.3 | 0.9 | · | · | 0.7
O=c1[nH]c(=S)n(-c2ccc(F)cc2)c(O)c1/C=N/N1CCOCC1 | -3.7 | i | -1.8 | 14 | -1.8 | 16% | 0.65
O=c1c2ccccc2nc(-c2ccccc2)n1-c1cccc(O)c1 | 2.5 | i | -5.0 | -0.3 | 1.7 | 9% | 0.65
O=C(COc1ccc(Cl)cc1)NCCc1cnc[nH]1 | 2.5 | i | 4.0 | 3.3 | -2.4 | -9% | 0.66
COP(=O)(C#Cc1ccccc1)C(O)c1ccc(Br)cc1 (stereo unspecified) | -1.5 | i | 2.1 | -1.0 | -0.1 | -9% | 0.69
COC(=O)C1=C(c2ccc(OC(F)(F)F)cc2)C[C@@H]2CC[C@H]1N2C(=O)NCCCOC(C)C | -0.1 | i | 0.4 | 4.9 | · | · | ·
Cc1nc2cc(C(F)(F)F)ccc2n1C1CCN(Cc2nnnn2Cc2cccs2)CC1 | · | · | -3.0 | 5.0 | -4.3 | 14% | 0.73
COC(=O)c1ccc(CN2CCN(Cc3ccccc3)CC2)cc1 | · | · | 2.8 | 1.5 | -2.4 | 7% | 0.68
O=C(COc1ccccc1)N1CCN(Cc2c[nH]c3ccccc23)CC1 | · | · | -2.7 | -0.4 | 3.0 | 0% | 0.69
OCC#CC[N+]1(CC#Cc2ccccc2)CCOCC1 | -1.2 | i | -1.3 | 2.1 | -1.1 | · | 0.71
Cn1c(C(=O)O)c(CC(=O)N2CCN(Cc3ccccc3)CC2)c2ccccc21 | · | · | -2.7 | 4.4 | 3.2 | 22% | 0.68
CCc1ccccc1NC(=O)N1C[C@H]2C[C@@H](C1)c1cccc(=O)n1C2 | -1.8 | i | 0.3 | -0.5 | -5.4 | · | 0.74
C[C@H]1CCCC(=O)CCC/C=C/c2cc(O)cc(O)c2C(=O)O1 | 6.0 | i | 4.2 | · | ? | 9% | ·
O=c1[nH]c2ccccc2n1C1CCN(C(c2nnnn2C2CCCC2)C2CC2)CC1 (stereo unspecified) | 6.3 | · | -3.7 | · | · | · | ·
Cc1cccn2c(=O)c3c(nc12)N1CCc2ccccc2C1C1(C3)C(=O)NC(=O)N(C)C1=O (stereo unspecified) | · | · | 1.8 | -6.1 | -3.3 | 24% | 0.71
CCN1C(=O)C(=C/C=C/c2ccco2)C(=O)N(CC)C1=S | 4.6 | i | 98 | 12 | · | · | 0.71
O=c1[nH]c(=O)n(CCC2=CCCCC2)c(O)c1C=Nc1cccc(F)c1 | · | · | -0.2 | -6.3 | ? | 1% | 0.72
CN(C)P(=O)(N(C)C)N1CC1 | -2.5 | i | -2.7 | 1.5 | · | -2% | 0.68
C=C[C@H]1CN2CC[C@H]1C[C@@H]2[C@@H](O)c1ccnc2ccccc12 | -1.4 | i | 4.9 | 5.1 | · | · | ·
COc1ccc(CCNCc2ccccn2)cc1OC | · | · | 2.1 | 1.2 | -4.2 | 4% | 0.65
S=C1Nc2ccccc2Sc2ccccc21 | -0.1 | · | -1.2 | 4.0 | 2.1 | -7% | 0.67
CCOC(C(=O)OCCC[N+](C)(CC)CC)(c1ccccc1)c1ccccc1 | -29 | i | 1.4 | 1.4 | -2.1 | 6% | 0.65
CNC(=O)Oc1c(C)[nH]ccc1=O | -9.3 | i | -1.7 | · | · | -9% | ·
Cc1ccc(C(=O)O)cc1N=Nc1c(O)[nH]c(=O)[nH]c1=O | -1.3 | i | 2.0 | 9.9 | -3.3 | 5% | 0.7

More compounds follow.
SMILES | MLL AF4-AF9 inh | FGF22 binding | HNF4A DNA FP | UCH37 DUB inh | RanGTP-Impb inh | Vif A3G | Ecoli growth
CC(Cc1cnccn1)NCc1c(C(=O)N2CCCCCCC2)nc2ccc(Cl)cn12 (stereo unspecified) | 1.2 | i | 1.8 | 0.9 | 0.1 | · | 0.72
C=C1C(=O)O[C@@H]2C[C@@H](C)[C@@H]3C=CC(=O)[C@@]3(C)[C@@H](O)[C@H]12 | -4.2 | i | 0.2 | -0.1 | 0.0 | 3% | ·
Nc1ncc2[nH]cnc2n1 | -1.1&9.4 | i | 2.5&4.2 | -2.7&4.0 | 4.8&4.0 | · | 0.64&0.65
CN(C)C(=O)Oc1ccc2oc(=O)cc(-c3cc4ccccc4o3)c2c1 | -3.4 | i | 8.4 | · | 4.5 | · | ·
CC(NS(C)(=O)=O)c1nnc2n1-c1ccc(Br)cc1C(c1ccccc1Cl)=NC2 (stereo unspecified) | · | i | 1.3 | 1.8 | 0.1 | · | 0.64
O=c1[nH]c(=O)n(C2CCCCC2)c(O)c1C1NCCc2ccccc21 (stereo unspecified) | · | · | 1.8 | 3.3 | 2.4 | 11% | 0.8
Clc1ccc(-c2nc3ccc(Cl)cn3c2CN2CCOCC2)cc1 | · | · | -4.0 | -3.9 | -1.7 | -6% | 0.7
COC(=O)C1=C(c2ccc(-c3ccccc3)c(F)c2)C[C@@H]2CC[C@H]1N2C(=O)NCc1ccco1 | 4.9 | i | 3.8 | 0.6 | · | · | ·
Cc1cc(/C=C2\C(=O)NC(=O)N(c3cccc(F)c3)C2=O)c(C)n1-c1ccc(C(=O)O)c(Cl)c1 | -2.9 | i | -4.9 | 6.7 | 4.8 | · | 0.7
CC(Cc1ccccc1)N1C(=O)c2ccccc2C1=O (stereo unspecified) | -3.6 | i | 8.4 | 1.0 | 1.5 | · | 0.71
O=C(c1ccc2c(c1)OCO2)C1CCCN(Cc2ccccn2)C1 (stereo unspecified) | -8.4 | i | 0.8 | -0.4 | -2.5 | 11% | 0.63
O=c1c2ccccc2nc(CNCc2ccco2)n1-c1ccc(F)cc1 | · | · | 4.2 | -1.3 | 4.3 | 6% | ·
COc1ccc(C)cc1NC1=NCCCS1 | -1.7 | · | 1.4 | 3.4 | -2.2 | -7% | 0.7
Fc1ccc(N2CCN(Cc3cc4c(cc3Br)OCO4)CC2)cc1 | 6.0 | i | 3.2 | 1.7 | -0.9 | -1% | 0.59
O=C(Nc1ccc(F)cc1F)c1cccn(Cc2ccccc2)c1=O | -7.2 | i | -0.9 | 1.1 | ? | · | 0.7
C[N+](C)(C)CC1CCCc2ccccc2C1=O (stereo unspecified) | -0.5 | i | 3.8 | · | · | · | ·
S=C=Nc1ccccn1 | -5.5 | i | -0.8 | 2.7 | -2.7 | -8% | 0.7
CN(C(=O)Oc1ccc(C(C)(C)C)cc1)c1ccccc1 | -2.9 | · | -0.4 | -1.5 | -2.6 | 19% | 0.63
Cc1ccc(OP(=O)(Nc2cccc(C)c2)Oc2ccc(C)cc2)cc1 | -1.6 | i | -2.5 | 0.3 | 0.7 | -3% | 0.68
Cc1ccc(-n2c(C)cc(/C=C3/C(=O)NC(=O)N(Cc4ccco4)C3=O)c2C)cc1 | · | · | -0.1 | -1.1 | 0.8 | · | 0.68
O=c1c2ccccc2nc(Cc2ccccc2)n1-c1ccc(O)cc1 | 0.4 | i | 0.1 | 6.0 | -4.2 | · | 0.69
CC(C)COc1ccc(Cc2c(O)[nH]c(=S)[nH]c2=O)cc1 | -1.4 | i | 3.6 | -3.6 | 2.7 | · | 0.63

Not all compounds are listed (hit frequency here may not be typical).
